GALR2 agonist: GALR2 receptor agonists, primary screen, cell-based; Galanin receptor type 2 (Homo sapiens), O43603; GALR2-expressing cells, agonist activation read-out; activation, %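 (tested at 5 µM)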; hit rate 0.48% among 140,000; AID 803, 2007;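 active = above mean plus 3 SD of all compounds, about 5% in these data, not always enough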;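 also: 0% = vehicle buffer wells and 100% = reference agonist at full effect; tested in CHO reporter cells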
Target sequence (O43603 whole entry, looked up): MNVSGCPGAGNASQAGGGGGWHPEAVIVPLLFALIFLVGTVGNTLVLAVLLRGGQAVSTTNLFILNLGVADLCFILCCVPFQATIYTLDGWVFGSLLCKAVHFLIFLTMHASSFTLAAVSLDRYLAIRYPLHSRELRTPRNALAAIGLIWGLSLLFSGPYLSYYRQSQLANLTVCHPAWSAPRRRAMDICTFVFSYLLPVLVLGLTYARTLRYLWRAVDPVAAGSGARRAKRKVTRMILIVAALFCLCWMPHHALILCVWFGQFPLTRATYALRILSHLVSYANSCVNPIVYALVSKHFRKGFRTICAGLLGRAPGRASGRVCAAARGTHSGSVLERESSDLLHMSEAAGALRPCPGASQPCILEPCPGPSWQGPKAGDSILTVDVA
INS promoter inh: inhibitors of insulin promoter-driven GFP, primary screen, imaging, TRM-6 cells (human fetal islet line), eGFP reporter, cell count | reporter expression induced with tamoxifen | inhibition, % at 2 µM | hit rate 0.9% among 130,000 | AID 1273, 2008;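 active = inhibition above the mean plus 3 SD, with well images judged a real hit on visual review, cut at about 60% in these data, passing the limit was not always enough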
PKD1 kinase inh: inhibitors of human PKD1 kinase, biochemical, fluorescence polarization; Serine/threonine-protein kinase D1 (Homo sapiens), Q15139; PKD1 kinase fluorescence polarization assay; inhibition, %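 (about 10 µM by stock and volumes)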; hit rate 0.056% among 200,000;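 active = inhibition of 50% or more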;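 also: controls were vehicle for no effect and a reference inhibitor for full effect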
HSV augment: enhancers of HSV replication in host cells, fold increase, host cell viability. maximum fold increase. hit rate 0.005% among 220,000. HSV replication augmentation in cells;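 active = peak rise of 1.5-fold or more in the series; tested in PC3 cells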;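 also: first round at 10 µM; read as green reporter fluorescence; hits show the peak of a series up to 25 µM; 1 = signal of infected wells without compound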
RGS16-Gao: modulators of RGS16 binding to Galphao, primary screen, biochemical, human proteins, multiplexed bead flow cytometry; binding response (% of control), % at 10 µM; hit rate 0.38% among 220,000; Regulator of G-protein signaling 16 (Homo sapiens) + Guanine nucleotide-binding protein …; bead-based flow cytometry RGS16-Galphao binding, fluorescence; actives lie on both sides;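 active = below 25% or above 175%, edge rows of some plates excepted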;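 also: Galphao activated by GDP with aluminum fluoride before binding; 100% = wells without compound and 0% = beads without RGS; some results beyond the cut were filed as inactive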
Target sequence (O15492 whole entry, looked up): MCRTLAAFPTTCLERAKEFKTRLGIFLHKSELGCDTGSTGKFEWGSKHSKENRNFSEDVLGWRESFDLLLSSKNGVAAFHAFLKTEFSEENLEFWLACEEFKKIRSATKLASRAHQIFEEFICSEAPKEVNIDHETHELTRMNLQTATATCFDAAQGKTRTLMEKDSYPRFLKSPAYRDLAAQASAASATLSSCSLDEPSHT
Target sequence (P09471 whole entry, looked up): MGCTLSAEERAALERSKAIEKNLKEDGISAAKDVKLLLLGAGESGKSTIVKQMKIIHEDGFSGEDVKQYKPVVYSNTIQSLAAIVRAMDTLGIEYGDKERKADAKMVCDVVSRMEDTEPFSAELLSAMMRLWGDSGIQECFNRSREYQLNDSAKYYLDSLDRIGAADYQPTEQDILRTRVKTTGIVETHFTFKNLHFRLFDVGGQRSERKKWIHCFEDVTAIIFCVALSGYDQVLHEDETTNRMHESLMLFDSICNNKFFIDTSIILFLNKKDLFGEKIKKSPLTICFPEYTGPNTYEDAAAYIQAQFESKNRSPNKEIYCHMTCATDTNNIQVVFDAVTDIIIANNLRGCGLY
INS promoter inh cell count: recorded beside INS promoter inh, whose call it bears; normalized cell count, %; measured here: cell count, toxicity; reference of the scale not given here;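 cells exposed to compound for 48 h; stained nuclei by imaging scaled within each plate; lower means fewer cells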
HSV augment primary fold: further read-out of HSV augment, marked with its call; fold increase; compound at 10 µM; measured here: primary screen fold increase 10 uM; tested in PC3 cells;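 GFP signal in the first replicate; 1 = infected wells without compound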
* = called active by the depositor; i = inactive; . = not tested or not shown; & = joins results of further samples.

cpd	SMILES	GALR2 agonist	INS promoter inh	INS promoter inh cell count	PKD1 kinase inh
1	C[C@]12CC[C@@H]3c4cc(O)c(O)cc4CC[C@H]3[C@@H]1CC[C@@H]2O	.	.	.	.
2	CC1CN(C2CCN(S(=O)(=O)c3ccc4ccccc4c3)CC2)CC(C)O1 (stereo unspecified)	-3.5	.	.	-2
3	Cc1onc(-c2c(F)cccc2Cl)c1C(=O)N1C=CC(C(F)(F)Cl)=NCC1	-1.8	-36	104	-2
4	CN(C)S(=O)(=O)c1cccc(NC(=O)c2ccncc2)c1	-1.3	37	99	-6
5	CC(C)CNC(=O)C1C2C=CC(C2)C1C(=O)O (stereo unspecified)	-1.2	25	72	-4
6	Cc1ccc(S(=O)(=O)N(C)c2ccc(OCC(=O)Nc3nc4c(ccc5ccccc54)s3)cc2)cc1	-0.9	10	97	-9
7	CN(C)CCCNC(=O)C1CCNCC1	-1.9	-16	118	-11
8	CCNC(=O)CC1C(=O)N(c2ccc(F)cc2)C(=O)N1CCC(C)C (stereo unspecified)	-1.6	-11	104	-6
9	CCCn1c(N)c(Br)c(=O)[nH]c1=O	-0.5	.	.	-2
10	CCn1c(SCC(=O)N/N=C/c2ccccc2OCC(=O)O)nnc1-c1ccc(C(C)(C)C)cc1	.	.	.	.
11	Cc1ccc(-n2[nH]c(C)c(/C=N/n3c(C)nc4ccccc4c3=O)c2=O)cc1	-0.9	7	82	1
12	CSCCC(Nc1ccc(S(=O)(=O)N2CCOCC2)cc1[N+](=O)[O-])C(=O)OCC(=O)NCC(C)C (stereo unspecified)	-0.7	0	101	-4

cpd	HSV augment	HSV augment primary fold	RGS16-Gao
1	i	0.76	90
2	i	0.84	100
3	i	0.77	101
4	i	0.96	66
5	i	0.94	101
6	i	0.91	91
7	i	0.92	101
8	i	0.94	84
9	i	0.95	96
10	i	1.1	96
11	i	0.85	103
12	i	0.94	115

The results go on:
cpd	SMILES	GALR2 agonist	INS promoter inh	INS promoter inh cell count	PKD1 kinase inh
13	Cc1ccc(NC(=O)CN(C)C(=O)CSc2nc3ccccc3c(=O)n2Cc2ccco2)cc1	-7.2	-12	225	-7
14	C/C(=N\NC(=O)C(N)=O)c1ccc(OC(F)F)cc1	.	.	.	-9
15	Cc1ccc(S(=O)(=O)NC2=NCN(C3CCCCC3)CN2)cc1	-0.5	-125	127	4
16	Cc1cc(N2C(=O)C(=O)/C(=C(/O)c3ccc(F)cc3)C2c2ccc(F)cc2)no1 (stereo unspecified)	-2.8	-26	94	-1
17	Cc1ccc2c(c1)C(C)CC(C)(C)N2C(=O)NC1CCCCC1 (stereo unspecified)	0.6	27	90	-1
18	COc1ccc(CCN2C(=O)C(O)=C(C(C)=O)C2c2ccccc2OC)cc1OC (stereo unspecified)	-2.9	.	.	-1
19	CCOc1ccc(C2OC(=O)Cc3cc(OC)c(OC)cc32)cc1 (stereo unspecified)	-1.9	.	.	-3
20	CN(C)S(=O)(=O)c1cccc(C(=O)NC2CCCc3ccccc32)c1 (stereo unspecified)	-1.9	0	151	9
21	CCOC(=O)CC(=O)Nc1ccc(Br)cc1C(=O)O	0.5	.	.	-16
22	CN(NS(=O)(=O)c1ccc(Br)cc1)c1nc(C(F)(F)F)nc2ccccc12	.	15	105	-8
23	O=C(O)C1CCCN1C(=O)Oc1ccccc1 (stereo unspecified)	-2.4	.	.	-3
24	Nc1ccc2nc(-c3cccs3)[nH]c2c1	-1.2	9	157	3

cpd	HSV augment	HSV augment primary fold	RGS16-Gao
13	i	0.76	94
14	i	1	94
15	.	.	100
16	i	0.96	102
17	i	1	107
18	i	1	99
19	i	0.99	100
20	.	.	105
21	i	1	100
22	.	.	75
23	i	1.1	105
24	i	0.8	107

Carrying on.
cpd	SMILES	GALR2 agonist	INS promoter inh	INS promoter inh cell count	PKD1 kinase inh
25	CCn1c2ccccc2c2cc([N+](=O)[O-])ccc21	.	-15	147	-3
26	O=C(CC1(O)C(=O)N(Cc2ccc3c(c2)OCO3)c2ccccc21)c1ccccc1 (stereo unspecified)	-4.0	.	.	8
27	Cc1cccc(-c2n[nH]c(=S)n2/N=C/C=C/c2ccco2)c1	.	.	.	.
28	CCN1C(=O)/C(=C\c2ccncc2)SC1=S	.	.	.	.
29	O=C1CN(S(=O)(=O)c2ccc(F)cc2)CC(=O)N1CCc1ccccc1	-1.8	-30	86	-6
30	Cc1ccc(NC2CC(=O)N(c3ccc(C)cc3)C2=O)cc1 (stereo unspecified)	-1.6	10	101	-2
31	CCOCc1c(C(=O)OCC(=O)Nc2ccc(C)c(S(=O)(=O)N(C)C)c2)oc2ccccc12	0.1	26	107	-5
32	CCOCCCNS(=O)(=O)c1ccc2c(c1)OCCO2	-2.7	7	138	-15
33	COc1ccccc1C(=O)Nc1ccc(Oc2ncnc3sc(-c4ccccc4)cc23)cc1	-1.0	-5	119	7
34	O=C1c2ccccc2C(=O)N1CCCCSc1nnc2c(Cl)cc(Cl)cn12	-2.6	0	128	-3
35	CC(C)(C)C(=O)Nc1c2c(nc3c1CCC3)CCCC2	-0.6	29	67	-15
36	COc1ccc(C2NCCc3cc(OC)c(OC)cc32)cc1OC (stereo unspecified)	-0.7	-13	128	-6

cpd	HSV augment	HSV augment primary fold	RGS16-Gao
25	i	0.91	105
26	i	1.1	101
27	i	0.79	97
28	i	0.9	103
29	i	0.95	105
30	i	1	99
31	i	1	105
32	i	1	101
33	i	0.85	103
34	i	0.86	103
35	i	1.1	99
36	i	0.87	97

One compound at a time, from the list above:
CCOCCCNS(=O)(=O)c1ccc2c(c1)OCCO2 is listed as GALR2 agonist = -2.7; INS promoter inh = 7; INS promoter inh cell count = 138; PKD1 kinase inh = -15; HSV augment = i; HSV augment primary fold = 1; RGS16-Gao = 101
O=C1c2ccccc2C(=O)N1CCCCSc1nnc2c(Cl)cc(Cl)cn12 is listed as GALR2 agonist = -2.6; INS promoter inh = 0; INS promoter inh cell count = 128; PKD1 kinase inh = -3; HSV augment = i; HSV augment primary fold = 0.86; RGS16-Gao = 103

Continuation:
cpd	SMILES	GALR2 agonist	INS promoter inh	INS promoter inh cell count	PKD1 kinase inh
37	O=c1n(S(=O)(=O)c2cccc3cccnc23)c2ccccc2n1S(=O)(=O)c1cccc2cccnc12	-1.1	.	.	2
38	COc1ccccc1Cc1noc(-c2cc(Cl)ccc2OC)n1	0.0	-19	188	-10
39	COc1cc(SC)ccc1C(=O)OC(C)C(=O)NC1CCCC1 (stereo unspecified)	.	0	123	5
40	CCOC(=O)c1cccc(NC(=O)CN2CCN(c3ccc(OC)cc3)CC2)c1	-2.0	0	99	-8
41	CCOC(=O)c1c(-c2cccs2)csc1NC(=O)CC(C)C	-1.0	19	67	-1
42	CCC(=O)c1cn(CC(=O)O)c2ccccc12	.	.	.	-1
43	COc1cc2nc(N3CCNCC3)nc(N)c2cc1OC	-5.0	-141	112	-1
44	Cc1ccc(C(=O)Nc2oc(-c3ccccc3)cc2C#N)cc1	-0.1	14	112	-6
45	O=C(NC(=S)N1CCN(C/C=C/c2ccccc2)CC1)c1cccnc1	.	.	.	.
46	Cc1cccn2cc(CCNC(=O)c3cccs3)nc12	.	.	.	.
47	CCc1ccccc1N(C(=O)Cn1nnc2ccccc21)C(C(=O)NCCOC)c1ccco1 (stereo unspecified)	-0.7	.	.	-13
48	CCCCCc1nc2sc3c(c2c(=O)n1N)CCC3	0.4	-25	114	-1

cpd	HSV augment	HSV augment primary fold	RGS16-Gao
37	i	1.1	103
38	i	1	104
39	i	1	105
40	i	0.99	101
41	i	1.2	104
42	i	1	103
43	i	0.92	90
44	i	0.89	101
45	i	0.91	96
46	i	0.91	151
47	i	1	100
48	i	0.98	78

Next results follow.
cpd	SMILES	GALR2 agonist	INS promoter inh	INS promoter inh cell count	PKD1 kinase inh
49	CC1(c2ccc(OC(F)F)cc2)NC(=O)N(CC(=O)Nc2ccc3c(c2)OCO3)C1=O (stereo unspecified)	2.6	-37	156	-2
50	COc1ccc2[nH]c(=O)c(CNc3cc(C)ccc3C)cc2c1	.	.	.	.
51	COc1ccc(C(=O)Nc2nncs2)c(OC)c1	-2.2	.	.	-3
52	Cn1c(CNC(=O)c2ccccc2F)nnc1SCc1nc2ccccc2c(=O)[nH]1	.	.	.	-5
53	Cc1cc(NC(=O)COn2nnc3ccccc32)no1	-1.0	.	.	-10
54	Cc1cc(OCC(=O)NC(C)C)cc(C)c1Br	-0.9	-57	110	-10
55	Cn1c(=O)[nH]c2ncccc21	.	.	.	.
56	O=C(NCC1(N2CCCCC2)CCCCC1)C1CC(=O)N(c2ccc3c(c2)OCCO3)C1 (stereo unspecified)	.	.	.	-7
57	Cc1ccc(NC(=O)/C=C\C(=O)NCC(=O)O)cc1	.	53	122	-5
58	CCCc1[nH]n(-c2nc3ccccc3s2)c(=O)c1C=NCC1CCCO1 (stereo unspecified)	-1.4	9	57	0
59	CCc1cc(C(=O)N2CCCC(CNC(=O)c3ccc(-c4ccccc4)cc3)C2)no1 (stereo unspecified)	.	.	.	0
60	Cc1ccc(Cl)cc1NC(=O)COC(=O)C12CC3CC(CC(C3)C1)C2	1.1&-2.0	-37&59	125&161	0&-5

cpd	HSV augment	HSV augment primary fold	RGS16-Gao
49	i	1.1	102
50	i	0.91	100
51	i	0.86	101
52	i	0.94	106
53	i	0.86	101
54	i	0.93	101
55	i	0.98	93
56	i	1.1	101
57	i	0.94	87
58	i	0.94	122
59	i	0.92	93
60	i	0.94&0.73	86&101

Entries above with an aryl thioether with sulfur outside any ring (5):
cpd	SMILES	GALR2 agonist	INS promoter inh	INS promoter inh cell count	PKD1 kinase inh
10	CCn1c(SCC(=O)N/N=C/c2ccccc2OCC(=O)O)nnc1-c1ccc(C(C)(C)C)cc1	.	.	.	.
13	Cc1ccc(NC(=O)CN(C)C(=O)CSc2nc3ccccc3c(=O)n2Cc2ccco2)cc1	-7.2	-12	225	-7
34	O=C1c2ccccc2C(=O)N1CCCCSc1nnc2c(Cl)cc(Cl)cn12	-2.6	0	128	-3
39	COc1cc(SC)ccc1C(=O)OC(C)C(=O)NC1CCCC1 (stereo unspecified)	.	0	123	5
52	Cn1c(CNC(=O)c2ccccc2F)nnc1SCc1nc2ccccc2c(=O)[nH]1	.	.	.	-5

cpd	HSV augment	HSV augment primary fold	RGS16-Gao
10	i	1.1	96
13	i	0.76	94
34	i	0.86	103
39	i	1	105
52	i	0.94	106

(further entries)
cpd	SMILES	GALR2 agonist	INS promoter inh	INS promoter inh cell count	PKD1 kinase inh
61	Cc1cc(C(=O)CN2C(=O)CCC2=O)c(C)n1Cc1ccccc1	-0.5	.	.	-16
62	Cn1nnnc1SCC(=O)NNC(=O)c1ccc(F)cc1	.	.	.	-1
63	CSC1=NCCN1C(=O)c1ccc2c(c1)OCO2	-1.0	.	.	-5
64	CCn1c(O)c(C=C2N=c3ccccc3=N2)sc1=S	.	-57	121	-1
65	CCCC1C(c2ccco2)NC(c2ccco2)CC1(C)O (stereo unspecified)	-2.5	-57	91	-4
66	CCCCC(CC)COC1(c2ccccc2)OC(=O)c2ccccc21 (stereo unspecified)	-3.3	.	.	-1
67	O=C(N/N=C/c1ccc(F)cc1)c1ccc(OCc2ccccc2)cc1	.	.	.	.
68	Cc1onc(-c2ccccc2Cl)c1C(=O)Nc1nc2ccc(S(C)(=O)=O)cc2s1	-1.1	39	106	-2

cpd	HSV augment	HSV augment primary fold	RGS16-Gao
61	i	0.97	-13
62	i	0.82	99
63	i	0.88	103
64	i	0.89	91
65	i	0.79	100
66	i	1	115
67	i	1.1	73
68	i	0.92	109
